gsp antag: qHTS for Antagonists of gsp, the Etiologic Mutation Responsible for Fibrous Dysplasia/McCune-Albright Syndrome: qHTS; gsp-mutant cells, cAMP HTRF, 30 min; control for the full effect not named in the record; Potency, µM (titrated, usually from 76.9 µM), for inactives: top-dose activity change, negative = inhibition, most hits filed as inhibitors; 0.4% of 340,000 active; active = falling curve of any shape with a large fitted effect; inconclusive = falling curve, mostly with a smaller effect; inactive = flat or rising curve; cell line not stated here;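 further: intracellular cAMP measured with PDE inhibitor Ro 20-1724 present during compound exposure; potency means the concentration at half of the fitted maximal effect; on the % scale 0 is the no-effect control and ±100 the full control effect; nearly all actives have a fitted effect of over 65% in size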
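G418-selected cells were plated in DMEM/10% FBS for 16-24 h at 37C, then treated with compounds plus the PDE inhibitor […] (300 uM solution added) for 30 min at 37C. Intracellular cAMP was measured by HTRF after 30 min lysis at room temperature.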
D2 ag: Beta-Arrestin HTS for Positive Allosteric Modulators of the Human D2 Dopamine Receptor: Agonists. D(2) dopamine receptor (Homo sapiens), P14416. 0.084% of 360,000 active. activation, % (concentration not given with the values). DiscoveRx PathHunter D2 beta-arrestin, luminescence, 90 min; 100% = 57 uM dopamine signal; in the data active = activation above about 40%; inconclusive = about 15% to 40%; inactive = below about 15%; further: compound concentration not given in the record; the text of the record calls up to 30% inactive
Target sequence (P14416 whole entry, looked up): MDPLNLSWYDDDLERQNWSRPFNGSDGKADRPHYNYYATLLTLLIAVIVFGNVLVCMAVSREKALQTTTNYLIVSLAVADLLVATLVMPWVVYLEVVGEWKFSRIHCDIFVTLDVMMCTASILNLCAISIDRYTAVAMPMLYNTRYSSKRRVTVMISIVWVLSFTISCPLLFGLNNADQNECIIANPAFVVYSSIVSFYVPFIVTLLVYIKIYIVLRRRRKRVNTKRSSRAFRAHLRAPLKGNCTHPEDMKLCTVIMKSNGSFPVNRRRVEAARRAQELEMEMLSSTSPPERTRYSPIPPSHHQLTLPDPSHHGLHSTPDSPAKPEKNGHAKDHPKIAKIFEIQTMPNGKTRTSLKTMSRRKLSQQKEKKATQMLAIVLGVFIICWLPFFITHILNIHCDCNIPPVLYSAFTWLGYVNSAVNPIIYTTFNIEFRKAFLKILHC
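DiscoveRx PathHunter D2 beta-arrestin cells (2,100/well) attached overnight, then compound-stimulated 90 min at 37 C in HBSS/10 mM HEPES/0.1% Tween-20 buffer; beta-galactosidase complementation read by luminescence after 1 h at ambient temperature. Dopamine 57 uM final (EC100) as control.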
Sfp inh: qHTS Assay for Inhibitors of Bacillus subtilis Sfp phosphopantetheinyl transferase (PPTase) | 4'-phosphopantetheinyl transferase ffp (Bacillus subtilis), Q9F4F7 | Biochemical Sfp PPTase activity, qHTS | Potency, µM, without a hit: max response, negative = inhibition, hits mostly inhibitors | 3.5% of 310,000 active; active means well fitted inhibition curve with a large enough effect; inconclusive means small, poorly fitted or top-dose-only effect, or another doubt; inactive means no such curve, though single readings can be large or run the other way;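 further: the enzyme is Sfp with the accession as filed and its product quenches rhodamine fluorescence; potency means the concentration at half of the fitted maximal effect; 0% = enzyme reaction without inhibitor and -100% = no enzyme wells; top concentration of the series not given in the record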
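Buffer: 50 mM Hepes-Na pH 7.6, 10 mM MgCl2, 0.01% Nonidet P-40, 0.01% BSA. Enzyme 15 nM, pre-exposed to compound 15 min; substrates then added and fluorescence change tracked over 30 min.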
Menin MLL FP FL: qHTS Assay for Inhibitors Targeting the Menin-MLL Interaction in MLL Related Leukemias: Competition With Fluorescein Labeled MLL-derived Peptide | FP activity change, % at 61.4 µM | Fluorescence polarization, fluorescein-MLL peptide displacement from menin | 290,000 tested, under 10 active; inconclusive = falling polarisation curve, or a change in total fluorescence; inactive = total fluorescence flat and polarisation flat or rising; no compound was filed as active; the % refers to the polarisation; negative = inhibition;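 further: % of control where 0% means no effect; inhibitors lower the polarisation; unlabelled MLL peptide was the positive control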
PINK1 modulator: A Quantitative High throughput Screen to Identify Chemical Modulators of PINK1 Expression. PINK1 immunofluorescence, high-content cytometry, 24 h. Potency, µM (titrated, usually from 76.6 µM), without a hit: at the top dose activation (PINK1 increase), most hits filed as activators. 0.2% of 410,000 active; active = well fitted activation curve with a large enough effect; inconclusive = small, poorly fitted or top-dose-only effect; inactive = flat fitted curve, though single readings scatter; cell line not stated here;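 further: potency means the concentration at half of the fitted maximal effect; % of control where 0% means no effect; nearly all actives have a fitted effect of over 65% in size; a mitochondrial uncoupler was the plate control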
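A stable cell line was treated with compounds at 5 concentrations for 24 hours, with CCCP as control. PINK1 levels and mitochondrial localization were measured by immunofluorescence with mitochondrial, cell and nuclear markers after fixation, read by laser-scanning cytometry.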
ClpP mod: qHTS Assay for Activators of ClpP; ATP-dependent Clp protease proteolytic subunit (Bacillus subtilis (strain 168)), P80244; purified B. subtilis ClpP, FRET peptide cleavage, 20 min; Potency, µM (series often up to 57.5 µM), for inactives: at the highest dose activity change, negative = active; 1.9% of 340,000 active; AID 651965, 2013; active = well fitted falling curve with a large enough effect; inconclusive = small, poorly fitted or top-dose-only effect; inactive = no such curve, though single readings can be large or run the other way; further: potency means the concentration at half of the fitted maximal effect; the source files actives as falling curves though it sought activators and does not explain the sign; nearly all actives have a fitted effect of over 65% in size; many hits overshoot -100%
Target sequence (P80244 whole entry, looked up): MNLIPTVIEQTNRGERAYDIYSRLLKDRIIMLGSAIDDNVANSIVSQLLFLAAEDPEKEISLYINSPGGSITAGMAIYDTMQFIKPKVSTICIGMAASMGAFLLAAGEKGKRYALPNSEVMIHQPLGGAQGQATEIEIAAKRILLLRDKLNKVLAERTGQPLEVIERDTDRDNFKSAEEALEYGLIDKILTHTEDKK
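Purified B. subtilis ClpP, 10 microg/mL final in Tris/HCl pH8 with KCl, BSA, glycerol and Tween-20, cleaved an Abz/nitrotyrosine-quenched decapeptide. Fluorescence (ex 320, em 430) was read at 0 and 20 min at room temperature. Delta was normalized to 5.8 microM ADEP and DMSO/no-enzyme controls.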
gsp ag: qHTS for Agonist of gsp, the Etiologic Mutation Responsible for Fibrous Dysplasia/McCune-Albright Syndrome: qHTS | 0.13% of 340,000 active | Potency, µM (highest dose often 76.9 µM), without a hit: at the top dose activation (cAMP increase), most hits filed as activators | gsp mutant cells, cAMP HTRF, 30 min; control for the full effect not named in the record; active = well fitted activation curve with a large enough effect; inconclusive = small, poorly fitted or top-dose-only effect, or another doubt; inactive = no such curve, though single readings can be large or run the other way; cell line not stated here;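 further: phosphodiesterase inhibitor Ro 20-1724 added with compounds to block cAMP breakdown; potency means the concentration at half of the fitted maximal effect; nearly all actives have a fitted effect of over 60% in size; about a fifth of the inactives were tested at one dose only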
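Cells stably selected in G418 were plated at 2000/well, grown 16-24 hr, then given compounds in DMSO with the PDE inhibitor […] (300 uM solution added) for 30 min at 37C; cAMP was read by HTRF.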
Numbers without * were called inactive; ? = inconclusive; / = no result given; & = joins results of further samples; [ ] = remark or other dose. An unsorted share of the library, and some 5.1% of all compounds hit somewhere here.

Value order – gsp antag | D2 ag | Sfp inh | Menin MLL FP FL | PINK1 modulator | ClpP mod | gsp ag
CCOP(=O)(OCC)c1nc(-c2ccc(F)cc2)oc1NCc1ccccc1
  -24% | -9.5 | 6% | 0.3 | 2.7% | 4.2% | 4%
COC(=O)Nc1nnc(Cc2ccccc2)s1
  3% | -1.1 | 21% | -2.0 | 10%[38.3 µM] | -2.0% | -9%
CCOCCn1ccc2c(OCC(=O)Nc3ccc(OC)c(OC)c3)cccc2c1=O
  35µM* | -2.1 | / | / | 4.2% | / | -23%[15.4 µM]
CCc1nc2ccccc2n1CC(O)COCC1CC=CCC1 (configuration not stated)
  11% | -6.1 | 22% | 2.5 | 1.2% | 0.5% | -22%
CCCCNc1cc(Cl)nc(N)n1
  8% | -6.1 | 6% | 2.8 | 14% | / | -4%[15.4 µM]
COC(=O)c1ccn(CSc2c(F)c(F)cc(F)c2F)n1
  8% | -1.5 | / | / | 0.5% | 0.7% | 0%
Cc1cc(C)c(C#N)c(SCc2ccc3c(c2)OCO3)n1
  -8% | 0.6 | -3% | 8.8 | 1.7% | -1.6% | -1%
Cc1ccccc1-c1ccc2ncnc(N3CCNCC3)c2c1
  / | / | 0% | -6.3 | -1.3% | / | /
CCc1ccc(N2CC(C(=O)N/N=C/c3ccccc3OC)CC2=O)cc1 (configuration not stated)
  -1% | 0.4 | 0% | -7.6 | 2.2% | 0.3% | -8%[15.4 µM]
Fc1ccc(-n2c(-c3ccco3)nc3nc4ccccc4nc32)cc1
  4% | -1.5 | 5% | 6.8 | 0.5% | ? | 32%
CN(CC(=O)Nc1ccccc1Br)C(=O)CCc1ccccc1
  -2% | -2.6 | 8% | 6.2 | 0.1% | / | 11%[15.4 µM]
CCCCCCOc1ccc(N2C(=O)CC(NCCc3ccc(S(N)(=O)=O)cc3)C2=O)cc1 (configuration not stated)
  4% | 4.1 | 1% | 4.4 | 8.3% | -0.9% | 3%
Cc1cc(=O)oc2cc(OC(=O)CCCCCN3C(=O)c4ccccc4C3=O)ccc12
  7% | 0.0 | -6% | 3.2 | -1.9% | 485% | ?
O=C(C1CC(c2ccc(F)cc2)=NO1)N1CCN(c2ccccc2)CC1 (configuration not stated)
  5% | -1.3 | 6% | 2.8 | 0.4% | -2.2% | -28%
Cc1ccc(-n2nnc3c(SCC(=O)NCc4ccco4)ncnc32)cc1
  -20% | -3.7 | -10% | 1.2 | 0.7% | -1.8% | -14%
COc1ccccc1NC(=O)C(C)NS(=O)(=O)c1ccc(Cl)cc1 (configuration not stated)
  -11% | -2.3 | 13% | -0.1 | 0.6% | -0.6% | -1%
CC(C)(C)[C@@H]1COC(=O)[C@@H](Cc2ccc(F)cc2)CC/C=C\C[C@@H](CC(=O)N(CCO)Cc2ccccc2)C(=O)N1
  -15% | 0.1 | / | / | 1.7% | 2.4% | /
CSCCC(C(=O)OCC(=O)c1ccc(C)c(C)c1)N1C(=O)c2cc(Cl)c(Cl)cc2C1=O (configuration not stated)
  3% | -3.0 | 16% | 1.3 | -3.3% | -2.8% | -10%
COc1ccc(NC(=O)Nc2cccc3c2O[C@H](CN(C)S(=O)(=O)c2ccc(OC)cc2)[C@@H](C)CN([C@H](C)CO)C3=O)cc1
  -28% | -0.4 | / | / | 2.0% | -0.4% | /
COC(=O)c1sccc1NN1C(=O)c2ccccc2C1=O
  4% | -3.0 | 8% | 7.4 | -0.7% | 1.7% | -3%[15.4 µM]
CC(=O)Nc1ccc(C(=O)N2CCCCC2c2cc(C(=O)NCc3ccc(F)cc3)no2)cc1 (configuration not stated)
  / | -5.9 | / | / | 0.8% | -1.1% | /
Cc1ccc(OCC(=O)NNc2c3ccccc3nc3ccccc23)cc1
  28µM* | 2.7 | ? | -1.7 | -1.2% | -4.7% | 1%
O=C(NCc1ccccc1)c1onc(CSc2nc3ccccc3[nH]2)c1C(=O)NCc1ccccc1
  -14% | -2.7 | 16% | 1.6 | 0.9% | -5.4% | /
O=S(=O)(Nc1ncnc2sc3c(c12)CCC3)c1ccc(Cl)s1
  ? | -2.2 | 4% | 12 | 1.0% | -12% | ?
O=C(C1CC1)n1cc(C(=S)N2CCOCC2)c2ccccc21
  5% | -1.9 | -14% | 0.4 | 1.0% | 0.8% | 2%
CCCCCCCC(=O)Nc1cc(C(=O)NCCC)ccc1N1CCC2(CC1)CC(c1cccc(Br)c1)=NO2
  -6% | -3.8 | / | / | 0.8% | -6.0% | -1%
COc1cccc(NC(=O)N(C)C[C@H]2Oc3cc(Br)ccc3S(=O)(=O)N([C@H](C)CO)C[C@H]2C)c1
  / | -0.8 | / | / | 2.5% | 1.1% | 6%
Cc1csc(=O)n1CCC(=O)OCC(=O)Nc1ccc(S(N)(=O)=O)cc1
  8% | -0.3 | / | / | 2.9% | 0.6% | ?
c1ccc(-n2c(SCC3CCCCO3)nnc2-c2cnccn2)cc1 (configuration not stated)
  -5% | -0.2 | -5% | 2.4 | -0.2% | 0.5% | -9%
O=C(O)c1ccc2c(c1)C(=O)N(C(Cc1ccc(O)cc1)C(=O)O)C2=O (configuration not stated)
  16% | -5.2 | 9% | -1.0 | -4.4% | 0.3% | -16%
O=C(Nc1cccnc1)NC1CCCCC1
  11% | -0.6 | 14% | 1.3 | 0.8% | 2.8% | -7%
O=C(NC1CCCN(Cc2ccc(Cl)cc2)C1)c1ccnc(Cl)c1 (configuration not stated)
  -5% | 6.4 | 9% | 6.0 | 0.3% | / | -65%[inhibitor]
COCCNc1nc(NCc2ccc(C(C)C)cc2)c2sccc2n1
  / | 10 | / | / | ? | -9.2% | /
Cc1cccc(C)c1NC(=S)N(c1ccccc1)C(C)C
  12% | -4.1 | 8% | 3.9 | 1.1% | -1.8% | 20%
CCOc1ccccc1NC(=O)CN(C)S(=O)(=O)c1ccc(OC)c(C)c1
  -22% | 5.9 | 0% | 0.1 | / | 0.9% | -39%[inhibitor]
Cc1ccc2nc(C(C)(C)C)c(Cc3ccccc3C(F)(F)F)n2c1
  / | -7.2 | / | / | 15% | 5.2% | /
CCCc1nc(SCC(=O)NNC(=O)c2ccc(OC)cc2)c2ccccc2n1
  6% | -5.2 | -18% | 0.0 | 2.0% | 3.7% | ?
Nc1nc(CCl)nc(Nc2ccc3ccccc3c2)n1
  20% | -3.8 | -27% | 3.2 | -0.6% | 0.6% | -7%[15.4 µM]
Cc1ccc(S(=O)(=O)CC(c2ccccc2)N2CCCCC2)cc1 (configuration not stated)
  -6% | -4.6 | 21% | -0.4 | 1.2% | / | ?
CCc1cc2cc3c(cc2nc1SCC(=O)OC(C)C)OCO3
  / | 1.2 | -7% | 2.3 | 2.5% | / | -3%[15.4 µM]
CC1(C)CC(=O)C=C(NCc2ccc(Cl)c(Cl)c2)C1
  -4% | -1.8 | 7% | -2.8 | 0.4%[38.3 µM] | 0.2% | -14%
CC(C)Cn1c(N)c(C(=O)COC(=O)c2cc3ccccc3cc2O)c(=O)n(C)c1=O
  -18% | 1.8 | / | / | 6.5% | 1.2% | -54%[inhibitor]
Cc1cc(C)nc(/N=C(\N)C2=C(O)CC(C)(C)CC2=O)n1
  -15% | -2.4 | 17% | 4.5 | 2.9% | 0.2% | ?
COc1ccc(Nc2nnc(-c3ccncc3)s2)cc1Cl
  17% | -4.4 | -6% | -21 | -0.5% | 0.4% | -14%
CCOc1ccc2oc(-c3ccccc3)c(C(N)=O)c2c1
  -11% | -0.8 | 9% | 4.4 | 2.0% | 2.8% | -3%[15.4 µM]
CNc1ccc(C(=O)OCC(=O)NC(=O)NC2CCCC2)cc1[N+](=O)[O-]
  -8% | -1.9 | / | / | 3.4% | 2.2% | -2%
Nc1nc(Nc2cccc(F)c2)nc2ccccc12
  1% | -3.1 | -1% | -0.2 | -0.7% | ? | 7%
CCOc1ccc(NC(=O)CC2C(=O)N(c3ccc(OC)cc3)C(=O)N2CCc2ccc(OC)c(OC)c2)cc1 (configuration not stated)
  4% | -1.1 | 5% | 7.5 | 1.8% | -0.4% | -7%
O=C(c1cc(-c2ccccc2)nn1-c1ccccc1)N1CCN(S(=O)(=O)c2ccc(F)cc2)CC1
  -18% | -3.2 | / | / | -1.5% | -1.4% | ?
COc1ccccc1CNc1ncc(-c2ccc(F)cc2)n1C
  -26% | -4.1 | -14% | 2.0 | 1.1% | 1.6% | 2%

Next records follow.
Value order – gsp antag | D2 ag | Sfp inh | Menin MLL FP FL | PINK1 modulator | ClpP mod | gsp ag
CC(=O)Nc1ccc(S(=O)(=O)NCC2CCC(C(=O)NCc3ccccc3)CC2)cc1 (configuration not stated)
  3% | 2.0 | 7% | -0.3 | -1.7%&4.3% | 1.6%&-0.9% | -9%
CCCn1ncc(C(=O)N(C)C2CCCN(Cc3ccccc3F)C2)c1C (configuration not stated)
  10% | 4.6 | 13% | / | 1.0% | 0.7% | 10%
COc1cc2cccc(OC)c(=O)c2c(O)c1OC
  -11% | -1.9 | 10% | 7.2 | 1.5% | / | 7%
Cc1ccc(S(=O)(=O)NC(=O)Nc2ccc(C)cn2)cc1
  10% | -6.0 | -1% | -0.2 | 0.9% | / | 13%[15.4 µM]
Nc1c(C(=O)c2ccccc2)sc2snc(SCC(=O)c3ccccc3)c12
  -5% | 0.7 | 40µM* | ? | 15% | -0.5% | 3%
